Polio RdRp inh = poliovirus RdRp elongation inhibitors, primary screen, biochemical, fluorescence polarization, total intensity; AID 588519, 2011; poliovirus polymerase elongation; stronger effect = lower value; hit rate 0.66% among 150,000; % elongation, % (compound at 16.7 µg/mL); in the data active = % elongation below about 90%; note: some results filed as inactive read as strong as hits
Target sequence (P03300 1749-2209 limits assumed): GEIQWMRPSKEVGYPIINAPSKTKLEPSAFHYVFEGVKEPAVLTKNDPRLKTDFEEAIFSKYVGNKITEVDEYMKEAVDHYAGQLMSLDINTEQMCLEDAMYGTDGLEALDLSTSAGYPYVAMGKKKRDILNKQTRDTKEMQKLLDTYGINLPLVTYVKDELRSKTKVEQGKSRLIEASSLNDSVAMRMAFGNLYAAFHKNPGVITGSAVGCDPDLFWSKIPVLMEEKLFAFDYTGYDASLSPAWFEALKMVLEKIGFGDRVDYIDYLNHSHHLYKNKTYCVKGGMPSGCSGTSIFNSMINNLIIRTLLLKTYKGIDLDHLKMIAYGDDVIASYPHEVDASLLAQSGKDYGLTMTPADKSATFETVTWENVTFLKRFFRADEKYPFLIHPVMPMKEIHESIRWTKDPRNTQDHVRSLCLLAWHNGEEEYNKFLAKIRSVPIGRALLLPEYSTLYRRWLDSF
Mtb MenB inh = M. tuberculosis MenB inhibitors, primary screen, biochemical, absorbance; 1,4-dihydroxy-2-naphthoyl-CoA synthase (Mycobacterium tuberculosis (strain ATCC 25618 / …; MenB enzyme assay, absorbance read-out; some hits fall short of the stated cut; inhibition, %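 (about 12 µg/mL by stock and volumes)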; hit rate 0.43% among 100,000;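 active = mean of two replicates above 30%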;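 note: 0% = no compound and 100% = wells with inactive enzyme; the first replicate is given; strong numbers were not always called active; inactives centre near -10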
Target sequence (P9WNP5 whole entry, looked up): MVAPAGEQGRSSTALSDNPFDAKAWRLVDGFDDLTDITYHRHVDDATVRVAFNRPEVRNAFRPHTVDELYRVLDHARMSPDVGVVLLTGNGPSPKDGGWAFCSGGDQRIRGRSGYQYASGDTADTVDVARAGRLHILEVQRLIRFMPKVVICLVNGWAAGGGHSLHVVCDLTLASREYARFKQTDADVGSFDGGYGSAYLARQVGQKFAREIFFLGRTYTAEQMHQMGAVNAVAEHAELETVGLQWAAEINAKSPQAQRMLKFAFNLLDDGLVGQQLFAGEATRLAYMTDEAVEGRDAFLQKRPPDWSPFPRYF
MbtI inh = MbtI salicylate synthase inhibitors, primary screen, biochemical, fluorescence intensity; purified MbtI enzyme, fluorescence intensity read-out; AID 493033, 2011; hit rate 0.89% among 100,000; inhibition, %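 (about 17 µg/mL by stock and volumes)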; P9WFX0;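 active = above 50% in both replicates, above 80% if mildly self-fluorescent; inactive = the rest, strongly fluorescent compounds included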;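 note: 0% = mean of negative and 100% = mean of positive controls; one replicate is shown; some compounds called inactive have numbers as strong as hits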
Polio RdRp inh intensity = recorded beside Polio RdRp inh, whose call it bears; % elongation; measured here: total intensity read-out; formula for this scale not given here;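 total fluorescence in place of polarization; lower means less elongation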
* marks the source's active call; other numbers are inactive results.

O=C(NCc1ccccc1)C1C2C=CC3(CN(Cc4cccnc4)C(=O)C13)O2 (configuration not stated) was read as Polio RdRp inh 103, Mtb MenB inh -1, MbtI inh -5 and Polio RdRp inh intensity 108.
For Cc1nn2c(N(C)CCO)c3c(nc2c1-c1ccc(F)cc1)CCCC3 the results were Polio RdRp inh 100, Mtb MenB inh 1, MbtI inh -10 and Polio RdRp inh intensity 103.
For FC(F)Oc1ccccc1-n1cccc1 the results were Polio RdRp inh 105, Mtb MenB inh -14, MbtI inh -5 and Polio RdRp inh intensity 105.
`CCc1c(C(=O)Nc2ccncc2)csc1C` gave Polio RdRp inh 99, Mtb MenB inh -31, MbtI inh -9 and Polio RdRp inh intensity 102.
CCOC(=O)N1CCC(NC(=O)c2ccc(NC(=O)C3CCCO3)cc2)CC1 (configuration not stated) was read as Polio RdRp inh 97, Mtb MenB inh -21, MbtI inh -11 and Polio RdRp inh intensity 97.
Screening O=C(Nc1nnc(C2CC2)s1)C1Cc2ccccc2CN1C(=O)c1ccco1 (configuration not stated) returned Polio RdRp inh 102, Mtb MenB inh -2, MbtI inh 10 and Polio RdRp inh intensity 98.
Screening Fc1cc(F)c2nc(N3CCN(c4nc5ccccc5s4)CC3)sc2c1 returned Polio RdRp inh 101, Mtb MenB inh -30, MbtI inh -9 and Polio RdRp inh intensity 104.
Screening O=C(NO)C12CCCC(CCC1)C2 returned Polio RdRp inh 100, MbtI inh -9 and Polio RdRp inh intensity 106.
CC(C)C(=O)N1c2ncnn2C(c2ccccc2)CC1c1ccccc1 (configuration not stated) was read as Polio RdRp inh 102, Mtb MenB inh -26, MbtI inh -5 and Polio RdRp inh intensity 103.
COc1cccc(-c2nn(C)c3sc(C(=O)N4CCCCCC4)cc23)c1 was read as Polio RdRp inh 105, Mtb MenB inh -30, MbtI inh 8 and Polio RdRp inh intensity 108.
For CC(=O)Nc1ccc(S(=O)(=O)NC2=NCN(C)CN2)cc1 the results were Polio RdRp inh 102, Mtb MenB inh -22, MbtI inh 9 and Polio RdRp inh intensity 95.
`CCNC(=O)Nc1ccc2nc(C)n(Cc3cccc(Cl)c3)c(=O)c2c1` gave Polio RdRp inh 105, Mtb MenB inh -8, MbtI inh -73 and Polio RdRp inh intensity 98.
O=C(/C=C1\Sc2ccccc2NC1=O)NC1CCCCC1 was read as Polio RdRp inh 98, Mtb MenB inh 7, MbtI inh 2 and Polio RdRp inh intensity 102.
Screening CCNc1nc(Cl)nc(NCC)n1 returned Polio RdRp inh 101, MbtI inh -3 and Polio RdRp inh intensity 106.
Screening Cc1ccc2c(cnn2C(=O)CCCC(=O)N2CCc3ccccc32)c1 returned Polio RdRp inh 103, Mtb MenB inh -20, MbtI inh 5 and Polio RdRp inh intensity 103.

Quoted from the entries so far for reference:
O=C(NCc1ccccc1)C1C2C=CC3(CN(Cc4cccnc4)C(=O)C13)O2 (configuration not stated) was read as Polio RdRp inh 103, Mtb MenB inh -1, MbtI inh -5 and Polio RdRp inh intensity 108.
For Cc1nn2c(N(C)CCO)c3c(nc2c1-c1ccc(F)cc1)CCCC3 the results were Polio RdRp inh 100, Mtb MenB inh 1, MbtI inh -10 and Polio RdRp inh intensity 103.
For FC(F)Oc1ccccc1-n1cccc1 the results were Polio RdRp inh 105, Mtb MenB inh -14, MbtI inh -5 and Polio RdRp inh intensity 105.
`CCc1c(C(=O)Nc2ccncc2)csc1C` gave Polio RdRp inh 99, Mtb MenB inh -31, MbtI inh -9 and Polio RdRp inh intensity 102.

The list goes on:
For CC(C(=O)N1CCN(Cc2ccccc2)CC1)N1CCN(S(=O)(=O)c2cccc(F)c2)CC1 (configuration not stated) the results were Polio RdRp inh 99, Mtb MenB inh -6, MbtI inh 2 and Polio RdRp inh intensity 104.
`CC1(C)OC(=O)C(=CNc2ccccc2O)C(=O)O1` gave Polio RdRp inh 103, Mtb MenB inh -36, MbtI inh 1 and Polio RdRp inh intensity 102.
For CN1C(CC(=O)c2ccccc2)CCCC1CC(O)c1ccccc1 (configuration not stated) the results were Polio RdRp inh 98, Mtb MenB inh -11, MbtI inh -13 and Polio RdRp inh intensity 103.
For CCCNc1nc(Cl)nc(Cl)n1 the results were Polio RdRp inh 101, Mtb MenB inh -56, MbtI inh -2 and Polio RdRp inh intensity 99.
Screening COc1ccc(-c2cnn(-c3ccccc3)c2N)cc1OC returned Polio RdRp inh 101, Mtb MenB inh 10, MbtI inh 6 and Polio RdRp inh intensity 103.
For O=C(NC(=O)c1ccccc1)Nc1cc(N2CCCCC2)ncn1 the results were Mtb MenB inh -11 and MbtI inh 2.
O=C(NC1CCCC1)C(Cc1ccccc1)NS(=O)(=O)c1cccs1 (configuration not stated) was read as Polio RdRp inh 102, Mtb MenB inh -5, MbtI inh -9 and Polio RdRp inh intensity 101.
`Cn1c(SCc2ccccc2)nnc1-c1ccccc1` gave Polio RdRp inh 105, Mtb MenB inh -22, MbtI inh -10 and Polio RdRp inh intensity 101.
Screening CCOC(=O)N1CCC(NC(=O)c2ccc(CO)c(C(=O)NC3CCN(C(=O)OCC)CC3)c2)CC1 returned Polio RdRp inh 100, Mtb MenB inh 10, MbtI inh -4 and Polio RdRp inh intensity 104.
For COc1cccc(OCc2nc3ccccc3c(=O)n2N)c1 the results were Polio RdRp inh 103, Mtb MenB inh 1, MbtI inh -1 and Polio RdRp inh intensity 101.
`O=C(NC1CCCC1)c1c(F)c(F)c(F)c(F)c1F` gave Polio RdRp inh 102, Mtb MenB inh -18, MbtI inh -3 and Polio RdRp inh intensity 104.
Screening O=C(Nc1ccc2oc(-c3cccnc3)nc2c1)c1cccnc1Cl returned Polio RdRp inh 101, Mtb MenB inh 15, MbtI inh 9 and Polio RdRp inh intensity 101.
CC(C(=O)N1CCCc2ccccc21)N1CC=C(c2ccccc2)CC1 (configuration not stated) was read as Polio RdRp inh 99, Mtb MenB inh -10, MbtI inh 12 and Polio RdRp inh intensity 103.
O=C(O)CC1(CC(=O)Nc2ccccc2O)CCCC1 was read as Polio RdRp inh 101, MbtI inh -7 and Polio RdRp inh intensity 105.
For CC1(C)Cc2nc3sc4c(NCCO)ncnc4c3cc2CO1 the results were Polio RdRp inh 102, Mtb MenB inh 6, MbtI inh 118 and Polio RdRp inh intensity 103.
CNC(=O)c1cc2c(=O)n3ccccc3nc2n1C was read as Polio RdRp inh 91, Mtb MenB inh -32, MbtI inh 107 and Polio RdRp inh intensity 92.
`CCOc1cc(CNn2cnnc2)cc(Cl)c1OCC(=O)NC(C)(C)C` gave Polio RdRp inh 106, Mtb MenB inh -3 and Polio RdRp inh intensity 108.
For Cc1ccccc1C(=O)c1ccc2c(c1)n(C)c(=O)n2C the results were Polio RdRp inh 111, Mtb MenB inh -18 and Polio RdRp inh intensity 118.
`CCOc1ncccc1C(=O)OCc1nc2ccccc2s1` gave Polio RdRp inh 105, Mtb MenB inh -16, MbtI inh 5 and Polio RdRp inh intensity 109.
Screening N#CCSc1ccc2c(c1)OCCO2 returned Polio RdRp inh 103, Mtb MenB inh 16, MbtI inh 4 and Polio RdRp inh intensity 98.
COc1ccc(NC(=S)Nc2ccccc2)cc1 was read as Polio RdRp inh 108, Mtb MenB inh -16 and Polio RdRp inh intensity 105.
Screening CCOc1cccc2cc(C(=O)NC3CC(C)(C)NC(C)(C)C3)c(=O)oc12 returned Polio RdRp inh 104, Mtb MenB inh -11, MbtI inh -14 and Polio RdRp inh intensity 100.
For O=C1CSc2nnc(-c3cccs3)n21 the results were Polio RdRp inh 57*, Mtb MenB inh 0, MbtI inh -102 and Polio RdRp inh intensity 57*.
For O=C(CCN1C(=O)COc2ccccc21)NCCN1CCc2ccccc2C1 the results were Polio RdRp inh 102, Mtb MenB inh 3, MbtI inh 3 and Polio RdRp inh intensity 98.
`Cc1cccc(CSc2nnc(CCC(=O)O)c(=O)[nH]2)c1` gave Polio RdRp inh 96, Mtb MenB inh -8, MbtI inh -4 and Polio RdRp inh intensity 111.
CC(C)OC(=O)[C@@H]1CCN[C@@H]1c1ccccc1 was read as Polio RdRp inh 103, Mtb MenB inh 3, MbtI inh -1 and Polio RdRp inh intensity 105.
`O=C(c1oc(=O)c2ccccc2c1-c1ccccc1)N1CCN(C2CCCCC2)CC1` gave Polio RdRp inh 102, Mtb MenB inh -20, MbtI inh -6 and Polio RdRp inh intensity 99.
`COC(=O)C(NC(=O)c1cccnc1Cl)C(C)C` (configuration not stated) gave Polio RdRp inh 101, Mtb MenB inh -2, MbtI inh 22 and Polio RdRp inh intensity 95.
For O=C(NCc1csc(-c2cccs2)n1)Nc1cccc(Cl)c1 the results were Polio RdRp inh 107, Mtb MenB inh -22, MbtI inh 110 and Polio RdRp inh intensity 111.
Screening Cc1ccc(-c2nn(CCC(=O)NC(C)C)c(=O)c3ccccc23)cc1 returned Polio RdRp inh 103, Mtb MenB inh -6, MbtI inh 10 and Polio RdRp inh intensity 102.

4 entries out of the list, ordered by length of the SMILES, low to high:
Screening N#CCSc1ccc2c(c1)OCCO2 returned Polio RdRp inh 103, Mtb MenB inh 16, MbtI inh 4 and Polio RdRp inh intensity 98.
COc1ccc(NC(=S)Nc2ccccc2)cc1 was read as Polio RdRp inh 108, Mtb MenB inh -16 and Polio RdRp inh intensity 105.
`COC(=O)C(NC(=O)c1cccnc1Cl)C(C)C` (configuration not stated) gave Polio RdRp inh 101, Mtb MenB inh -2, MbtI inh 22 and Polio RdRp inh intensity 95.
`O=C(c1oc(=O)c2ccccc2c1-c1ccccc1)N1CCN(C2CCCCC2)CC1` gave Polio RdRp inh 102, Mtb MenB inh -20, MbtI inh -6 and Polio RdRp inh intensity 99.

Continuation:
For COc1ccc(C(C)N(C)CCC(=O)O)cc1OC (configuration not stated) the results were Polio RdRp inh 104, Mtb MenB inh -7 and Polio RdRp inh intensity 108.
Screening O=C1N/C(=N\c2ccccn2)SC1Cc1ccccc1 (configuration not stated) returned Polio RdRp inh 97, Mtb MenB inh -3, MbtI inh 1 and Polio RdRp inh intensity 103.
Screening COC(=O)C1CCN(C(=O)C(C)Oc2ccccc2)CC1 (configuration not stated) returned Polio RdRp inh 105, Mtb MenB inh 1 and Polio RdRp inh intensity 110.
Screening Cc1ccc(S(=O)(=O)N(C)Cc2nc(-c3ccc(Cl)cc3)no2)cc1 returned Polio RdRp inh 102, Mtb MenB inh -6, MbtI inh -8 and Polio RdRp inh intensity 107.
Screening CCOC(=O)N1CCN(C(=O)CCN2C(=O)/C(=C/C=C/c3ccccc3)SC2=S)CC1 returned Polio RdRp inh 101, Mtb MenB inh -20, MbtI inh 11 and Polio RdRp inh intensity 105.
`COc1cc2c(cc1OC)C(C)N(C(=O)c1cc3c(Cl)nc4ccc(C)cc4c3s1)CC2` (configuration not stated) gave Polio RdRp inh 103, Mtb MenB inh -13, MbtI inh 68 and Polio RdRp inh intensity 105.
CCN(CC)C(=O)c1cn(C)c(=O)c2cc(OC)c(OC)cc12 was read as Polio RdRp inh 102, Mtb MenB inh -8, MbtI inh 5 and Polio RdRp inh intensity 106.
`O=C(O)CCCn1c2ccccc2c2cn[nH]c(=O)c21` gave Polio RdRp inh 99, Mtb MenB inh -17, MbtI inh 101 and Polio RdRp inh intensity 103.
For CC(C)=NNC(=O)Cc1c[nH]c2cccc(OCC(O)CNC(C)(C)C)c12 (configuration not stated) the results were Polio RdRp inh 102, Mtb MenB inh -20, MbtI inh 0 and Polio RdRp inh intensity 103.
Screening CC(C)[C@H](N)C(=O)OCCOCn1cnc2c(=O)[nH]c(N)nc21 returned Polio RdRp inh 100, Mtb MenB inh -3, MbtI inh -16 and Polio RdRp inh intensity 101.
Screening CCCCn1c(C2CC(=O)N(Cc3ccccc3)C2)nc2ccccc21 (configuration not stated) returned Polio RdRp inh 99, Mtb MenB inh -22, MbtI inh -9 and Polio RdRp inh intensity 107.
CC(C)Cn1c(SCC(=O)c2ccc(Cl)cc2)nc2ccccc2c1=O was read as Polio RdRp inh 106, Mtb MenB inh 3 and Polio RdRp inh intensity 110.
Screening CCN(CC)C(=O)c1ccc(OC(C)=O)cc1 returned Polio RdRp inh 108, Mtb MenB inh -9 and Polio RdRp inh intensity 108.
For CSc1nc(C)c(-c2cc3ccccn3c2)cc1C#N the results were Polio RdRp inh 101, MbtI inh 11 and Polio RdRp inh intensity 103.
O=c1[nH]cnc2c1sc1nc(N3CCOCC3)c3c(c12)CCCC3 was read as Polio RdRp inh 104, Mtb MenB inh -25, MbtI inh -2 and Polio RdRp inh intensity 102.
CC1CN(C(=O)CSc2nnc(NC(=O)Nc3ccccc3)s2)CC(C)O1 (configuration not stated) was read as Polio RdRp inh 105, Mtb MenB inh -28, MbtI inh 0 and Polio RdRp inh intensity 95.
O=C(O)c1ccc(C(=O)NCC2CCCO2)c(C(=O)O)c1 (configuration not stated) was read as Mtb MenB inh 3 and MbtI inh -4.
COCCn1c(=O)[nH]c(=O)c2c(C)cc(-c3ccc(F)cc3)nc21 was read as Polio RdRp inh 157, Mtb MenB inh -27, MbtI inh -15 and Polio RdRp inh intensity 194.

2 records picked at random from those above, as already listed:
CCN(CC)C(=O)c1cn(C)c(=O)c2cc(OC)c(OC)cc12 was read as Polio RdRp inh 102, Mtb MenB inh -8, MbtI inh 5 and Polio RdRp inh intensity 106.
O=c1[nH]cnc2c1sc1nc(N3CCOCC3)c3c(c12)CCCC3 was read as Polio RdRp inh 104, Mtb MenB inh -25, MbtI inh -2 and Polio RdRp inh intensity 102.

Assay outcomes from PubChem BioAssay.
